Source: PubChem
UCH37 inh – inhibitors of human deubiquitinating enzyme UCH37. Q9Y5K5. purified proteasome/UCH37, Ub-AMC cleavage fluorescence. inhibition, % (test concentration not listed). actives 0.33% (n = 330,000);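 active = mean of two replicates above 20%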;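 also: 0% = compound-free wells with enzyme and 100% = wells lacking proteasome; stock transfer was 100 nL into about 20 µL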
Target sequence (Q9Y5K5 whole entry, looked up): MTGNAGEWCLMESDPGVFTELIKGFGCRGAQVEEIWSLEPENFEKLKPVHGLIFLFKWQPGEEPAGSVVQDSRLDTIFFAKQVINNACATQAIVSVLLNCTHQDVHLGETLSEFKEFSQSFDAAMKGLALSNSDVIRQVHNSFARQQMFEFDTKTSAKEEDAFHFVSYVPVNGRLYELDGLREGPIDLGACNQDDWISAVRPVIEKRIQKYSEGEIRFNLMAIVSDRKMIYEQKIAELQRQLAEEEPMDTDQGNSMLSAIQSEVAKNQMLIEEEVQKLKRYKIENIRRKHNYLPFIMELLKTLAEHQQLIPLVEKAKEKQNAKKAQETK
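Test system – human UCH37 enzyme supplied as purified proteasome complex · Incubation – 30 min preincubation with enzyme, 25 min cleavage at room temperature · Detection – AMC fluorescence from Ub-AMC cleavage, excitation 355 nm, emission 460 nm · Benchmarks – no-proteasome wells (full inhibition) and compound-free wells (no inhibition)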
B2AR ag – human beta-2 adrenergic receptor agonism by FAP; P07550; Am2.2-beta2AR cells, FAP receptor internalization, flow cytometry; reference of the scale not given here; response, % (no concentration beside the values); actives 0.43% (n = 340,000); AID 504454;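 active = response above a set limit, near 3 SD of response in nonfluorescent compounds, cut at about 42% in these data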;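 also: stock transfer was 100 nL into about 11 µL; a reference agonist was the positive control; negative values mostly stem from fluorescent compounds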
Target sequence (P07550 whole entry, looked up): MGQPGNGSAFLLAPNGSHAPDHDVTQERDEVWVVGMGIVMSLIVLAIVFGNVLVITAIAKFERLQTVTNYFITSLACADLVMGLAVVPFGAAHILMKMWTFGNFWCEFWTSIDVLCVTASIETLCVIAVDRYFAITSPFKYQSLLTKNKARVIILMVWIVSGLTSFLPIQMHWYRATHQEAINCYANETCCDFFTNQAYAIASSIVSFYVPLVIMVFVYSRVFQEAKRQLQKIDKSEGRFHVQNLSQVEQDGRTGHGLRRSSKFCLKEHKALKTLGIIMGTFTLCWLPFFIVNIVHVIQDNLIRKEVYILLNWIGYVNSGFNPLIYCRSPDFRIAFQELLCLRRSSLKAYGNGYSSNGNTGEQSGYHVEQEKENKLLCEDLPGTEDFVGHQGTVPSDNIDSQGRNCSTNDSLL
Calb FLC – affects C. albicans growth with fluconazole | C. albicans CaCi-2 (fluconazole-resistant clinical isolate) + fluconazole, Alamar Blue growth, 48 h | growth inhibition, % (concentration not given with the values) | actives 0.57% (n = 300,000);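 active = most replicates above 75%; inconclusive = exactly half above 75%; inactive = most below 75%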;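 also: all wells also contain fluconazole at 8 µg/ml as a sub-toxic cotreatment; 0% = median of DMSO wells and 100% = median of geldanamycin control wells; wells of about 8 µL received 7.5 nL stock; the first replicate is given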
Beta apoptosis – blocks beta cell apoptosis; actives 0.8% (n = 300,000); protection from apoptosis, % (test concentration not listed); INS-1E cytokine-induced death, ATP luminescence, 48 h; percent of positive-control rescue, neutral wells zero;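 active = all replicates at 75% or more, or half of them and the mean; inconclusive = half reach 75% but not the mean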;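 also: 0% = cytokine-treated negative control wells and 100% = positive control rescue; higher means more ATP so stronger rescue from cytokine killing; wells of about 40 µL received 100 nL stock; the first replicate is given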
RanGTP-Imp inh – disruptors of Ran-importin-beta complex formation – biochemical, FRET, CFP-Ran, YFP-importin-beta, homogeneous, primary screen; actives 1.1% (n = 300,000); inhibition, % (test concentration not listed); cell-free CFP-Ran/YFP-importin-beta FRET ratio;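 active = most replicates above 15%; inconclusive = exactly half above 15%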;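 also: 0% = DMSO wells and 100% = Ran loaded with GDP instead of GTP; wells of about 40 µL received 100 nL stock; the first replicate is given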
T cruzi inh – T. cruzi replication inhibition. actives 1.4% (n = 300,000). AID 1885. inhibition, % (test concentration not listed). T. cruzi beta-gal in NIH3T3, luminescence, 90 h;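 active = mean inhibition across valid replicates above about 55%, limit read from the data; inconclusive = mean below that limit but half or more replicates reach it; inactive = mean below it, under half of replicates reach it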;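 also: signal also drops with host cell toxicity which is not excluded here; 0% = plate median of DMSO wells and 100% = zero luminescence signal; higher percent means less beta-gal luminescence so fewer parasites; stock transfer was 50 nL into about 50 µL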
LANA-H2B inh – blocks KSHV LANA binding to histone H2A/H2B; inhibition, % (test concentration not listed); cell-free LANA-H2A/H2B peptide, fluorescence polarization; Q9QR71; actives 0.6% (n = 320,000); in the data active = inhibition mostly above about 10%, no sharp cut-off; inactive = mostly below about 6.7%;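 also: stock transfer was 7.5 nL into about 10 µL; 0% = median of vehicle wells and 100% = median of positive control wells; one replicate is shown; the record names a cut of 25% in any replicate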
A1 inh – inhibitors of the anti-apoptotic protein A1, read as caspase activation; MEF A1-2A-BIM cells, Caspase-Glo 3/7 luminescence, 3 h; percent of clofoctol response, vehicle zero; caspase activation, % (no concentration beside the values); actives 0.066% (n = 330,000);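 active = over half of replicate activation scores above 10%, or exactly half above 10 with the replicate mean above 10; inconclusive = replicate mean below 10 yet half the replicates above 10; inactive = over half of replicates below 10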;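 also: wells of about 30 µL received 50 nL stock; many hits fall short of the cut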
* = called active by the depositor; ? = inconclusive; · = no result given. No enrichment for hits. Share with any hit: about 4.3%.

SMILES	UCH37 inh	B2AR ag	Calb FLC	Beta apoptosis	RanGTP-Imp inh	T cruzi inh	LANA-H2B inh	A1 inh
Cc1nc([N+](=O)[O-])c(NCCCO)n1Cc1ccccc1	8.6	-1.6	-15.8	0.1	·	-9.0	-0.5	0.4
O=C(CN1C(=O)S/C(=C\C=C\c2ccccc2)C1=O)N1CCOCC1	8.3	-5.9	-4.4	-8.1	0.1	-5.2	-2.6	0.1
CC(C)C(NC(=O)C1CCC(C(C)(C)C)CC1)C(=O)NCCc1ccc(S(N)(=O)=O)cc1 (stereo unspecified)	-1.3	-1.4	9.0	3.0	3.7	-5.2	0.5	0.6
O=C(NC(Cc1ccccc1)C(=O)O)/C(=C/c1ccc(Cl)cc1)NC(=O)c1ccco1 (stereo unspecified)	4.4	-14.0	0.5	-5.4	8.9	-14.0	-0.6	-0.5
CC1CCN(C(=O)C2COc3ccccc3O2)CC1 (stereo unspecified)	3.9	-1.6	·	-6.1	·	·	2.4	-0.2
O=C(OCC(=O)N1CCN(C(=O)c2ccco2)CC1)c1c(Cl)cccc1Cl	-2.4	-2.1	·	-7.2	·	·	4.1	1.6
CN=c1scc(-c2ccccc2F)n1/N=C(\C)c1cccnc1	·	-5.8	-1.9	7.6	7.9	55.0*	-3.9	-1.5
COc1ccccc1C1(CC(=O)Nc2nccs2)CCOC(C(C)C)C1 (stereo unspecified)	1.9	5.4	-2.3	2.6	0.1	5.8	5.2	0.0
NC(=O)CC[C@H](NC(=O)OCc1ccccc1)C(=O)OCc1ccc(Cl)cc1	1.5	12.7	?	1.5	7.8	-9.5	1.2	0.1
CCCN1C2=NCCCN2c2ccccc21	-2.4	-11.9	-9.2	-5.8	5.5	-28.8	2.9	0.0
COc1ccc(N(C)C(=O)c2ccc3c(Cl)c4c(nc3c2)CCCC4)c(OC)c1	4.9	-7.9	-20.2	0.0	3.0	36.4	-2.6	0.7
O=C(Nc1ccccc1N1CCOCC1)C1=COCCO1	3.7	-3.5	-2.8	-2.0	0.5	-10.8	0.2	-0.4
COc1ccc2[nH]c(-c3ccc(C)cc3)cc(=O)c2c1	-16.3	-9.3	7.9	8.6	?	-15.0	-2.5	-8.3
O=C(CSc1ccc(C(F)(F)F)cn1)Nc1ccccc1	3.5	-2.4	-12.1	·	-0.2	·	-6.3	-1.0
CCN(Cc1ccc2c(c1)OCO2)C(=O)CSc1ncnc2sccc12	1.0	-3.6	·	-4.2	·	·	-0.1	0.8
COc1cccc(Oc2ccc(S(=O)(=O)N3CCOCC3)cc2[N+](=O)[O-])c1	1.8	-5.7	·	11.6	·	·	-2.3	0.3
CC(Sc1nnc(N)s1)C(=O)Nc1ccc2c(c1)OCCO2 (stereo unspecified)	2.4	0.4	1.4	2.3	-0.3	5.9	3.9	0.5
CC(C)CC(=O)c1c[nH]c(C(=O)NCCc2ccccn2)c1	0.1	-3.4	-21.0	-13.8	-2.1	-3.0	-1.9	-0.7
C[C@]1(C(=O)NCCc2c[nH]c3ccccc23)C=C[C@@H](Cc2ccccc2)N1C(=O)c1ccccc1	0.3	1.5	11.5	-0.9	-1.8	16.6	-2.2	0.1
CCN(Cc1ccccc1)C(=O)CCc1nnc(CCCc2ccccc2)o1	-1.7	-1.8	26.8	0.4	-0.1	1.0	8.3	0.1
CC(C)c1ccc(C2/C(=C(\O)c3ccc4c(c3)OCCO4)C(=O)C(=O)N2CCN2CCOCC2)cc1 (stereo unspecified)	10.1	11.6	6.0	2.7	2.4	-19.5	0.4	-0.3
CCCCN(C)CCNC(=O)CCn1nc(-c2ccc(C)cc2)ccc1=O	0.2	3.0	-11.9	-7.6	-0.3	10.0	-0.5	-0.6
Cc1ccc(OCC(=O)NC2CCSc3ccccc32)cc1 (stereo unspecified)	4.6	-2.9	2.2	-0.3	-4.1	-5.5	0.2	1.8
Cc1cc(C)c(NC(=O)CCCSc2nnc(N)s2)c(C)c1	3.4	-9.7	-40.2	·	-1.4	-19.7	3.1	0.1
O=C(CCCn1c(=S)[nH]c2cc3c(cc2c1=O)OCO3)N1CCN(c2ccccc2)CC1	5.6	7.7	31.0	6.3	?	23.0	2.7	-0.4

No new results follow: two of the compounds above.
SMILES	UCH37 inh	B2AR ag	Calb FLC	Beta apoptosis	RanGTP-Imp inh	T cruzi inh	LANA-H2B inh	A1 inh
CCCN1C2=NCCCN2c2ccccc21	-2.4	-11.9	-9.2	-5.8	5.5	-28.8	2.9	0.0
COc1ccc(N(C)C(=O)c2ccc3c(Cl)c4c(nc3c2)CCCC4)c(OC)c1	4.9	-7.9	-20.2	0.0	3.0	36.4	-2.6	0.7

Remaining list, next part:
SMILES	UCH37 inh	B2AR ag	Calb FLC	Beta apoptosis	RanGTP-Imp inh	T cruzi inh	LANA-H2B inh	A1 inh
CCC(C(=O)OCC(=O)Nc1c(Cl)cc(Cl)cc1Cl)c1ccccc1 (stereo unspecified)	2.9	-2.4	-13.0	-8.6	3.1	20.8	-2.9	-0.4
O=C1CC(Cc2ccccc2)C(=O)N1CCCn1ccnc1 (stereo unspecified)	3.1	·	-0.3	-3.3	5.3	-12.1	1.1	-0.2
CCOC(=O)CNC(=O)c1ccc(C)cc1	-0.7	6.0	-9.3	-4.7	5.0	-5.2	-0.1	-0.5
CCCN(Cc1nnc(-c2cccs2)o1)C(=O)c1cccc(S(=O)(=O)N2CCOCC2)c1	4.4	-3.8	·	-1.4	·	·	-1.6	0.7
CC(=O)Nc1ccc(C(=O)N2CCN(C(=O)c3ccco3)CC2)cc1	3.5	3.8	6.9	·	-0.2	-16.6	-1.3	0.5
O=[N+]([O-])c1ccc(N2CCN(CC(O)COc3ccccc3)CC2)cc1 (stereo unspecified)	0.7	-1.2	5.4	2.7	-4.0	-1.4	-0.6	0.2
COc1ccc(C(=O)N=c2c(C#N)cc3c(=O)n4cccc(C)c4nc3n2Cc2ccco2)cc1	-36.1	·	-4.1	·	78.2*	1.6	·	·
COc1cc(C(=O)Nc2ncccc2C)ccc1OCC(=O)N1CCOCC1	-0.8	-12.1	·	1.3	·	·	-0.9	0.0
C[C@H]1CN=C(Nc2ccccc2)N1CC1CCCCC1	2.2	4.1	-9.9	-1.1	5.8	6.5	2.0	0.1
Cc1ccc(/C=C2\Oc3c(ccc(O)c3CN3CCN(C)CC3)C2=O)cc1	-81.8	4.7	-10.6	3.5	21.9*	-11.2	3.8	-1.4
Clc1ccc(CN2CCC(c3ccccc3)CC2)cc1	5.3	-8.5	-4.6	7.0	-1.2	27.8	-2.2	-0.4
O=C(O)c1cccc2cc(-c3ccccc3)oc(=O)c12	-260.8	11.7	-3.5	2.5	0.4	-2.9	0.3	2.4
Cc1cc(C)c2nc(-n3nc(C)cc3N)cc(C)c2c1	-0.7	-9.6	8.1	0.6	4.1	4.6	-2.2	0.0
CN1CCN(C2=Nc3cc(F)ccc3Cc3ccccc32)CC1	·	·	·	3.6	3.9	14.7	-6.0	-0.7
Cc1cc(OCCn2cncn2)ccc1[N+](=O)[O-]	3.1	5.1	1.1	-3.7	1.2	-11.4	-0.4	0.0
CCn1c(C)c(C(C)=O)c(N2CCN(c3ccc(F)cc3)CC2)nc1=S	2.5	1.8	2.2	-4.1	20.5*	0.5	-1.0	1.2
COc1ccc(-c2cc(-c3cccs3)c(C#N)c(SCC(=O)NCc3ccccc3OC)n2)cc1	-110.2	24.8	-5.3	29.3	1.3	-7.5	3.1	-0.2
CCOC(=O)C1CCN(CC(=O)c2c(C)[nH]c3ccccc23)CC1	-2.6	-1.5	?	2.1	-1.9	-0.2	-0.2	0.4
COc1cc2nc(C3CCC3)n(NC(=O)C3CCC(OC)CC3)c(=O)c2cc1OC (stereo unspecified)	5.8	-10.1	-2.2	-4.5	0.5	1.2	0.1	-1.0
O=C(COC(=O)C12CC3CC(CC(C3)C1)C2)NCc1ccco1	1.2	-0.6	3.1	-7.6	4.0	-7.9	-0.3	-1.3
CCCOc1ccc(N2C(=O)CC(N3CCC(O)(c4cccc(C(F)(F)F)c4)CC3)C2=O)cc1 (stereo unspecified)	3.4	-7.2	-4.7	0.0	-0.5	·	1.6	-0.2
Cc1ccc(/C=N/NC(=O)C(=O)N/N=C/c2ccc(C)o2)o1	·	10.7	-18.8	7.0	2.2	-14.1	1.3	-0.3
CN1CCC(N(C)C(=O)c2ccccc2Nc2ccc(SC(F)F)cc2)CC1	2.7	2.7	4.3	0.0	-3.9	59.3*	-1.2	0.2
Cc1cc(S(=O)(=O)N2CCOCC2)ccc1OCC(=O)NCC1CCCO1 (stereo unspecified)	1.7	7.7	-7.5	-6.0	1.5	1.1	-0.9	0.1
Cc1ccc2nc(SCC3CCCCO3)[nH]c2c1 (stereo unspecified)	-2.7	2.7	-3.8	-7.0	-1.8	-12.1	2.4	-1.3

Remaining list, next part
SMILES	UCH37 inh	B2AR ag	Calb FLC	Beta apoptosis	RanGTP-Imp inh	T cruzi inh	LANA-H2B inh	A1 inh
Oc1c(Br)cc(Br)cc1C=NCc1ccccc1	2.6	18.1	-9.7	-7.1	-17.7	-7.6	4.0	1.4
O=S(=O)(Nc1cccc(-c2ccc(N3CCCCCC3)nn2)c1)c1ccc(C(F)(F)F)cc1	5.2	-0.5	11.4	-4.1	1.8	-3.3	-7.3	-0.5
O=S(=O)(c1ccccc1)N1CCN(Cc2c(O)ccc3ccccc23)CC1	-1.2	1.0	·	0.9	·	·	-3.2	0.5
OC(CN1CCOCC1)Cn1c(-c2cccc(Cl)c2)nc2ccccc21 (stereo unspecified)	5.0	4.7	-3.7	-6.8	0.0	12.0	3.1	-1.0
CCOC(=O)C(=NC(C)CC)NNc1ccc(Br)cc1 (stereo unspecified)	-5.4	21.9	-28.3	-3.8	3.0	-6.8	1.3	0.0
CC(C)(C)NC(=O)c1cc(Cl)ccc1[N+](=O)[O-]	1.7	-1.9	-1.7	6.0	0.5	-10.2	-2.3	1.4
C=CCn1c(O)c(N=NC(=S)Nc2ccc(OC)cc2)c2ccccc21	4.5	17.0	108.2*	12.1	0.3	43.2	·	-0.8
C=CCn1c(=O)c2c(C)c(C)sc2n2c(Nc3ccccc3)nnc12	5.6	-3.0	3.7	-1.1	-1.6	27.7	1.2	0.3
Cc1cccc(CSc2nnc([C@@H]3CCCN3C(=O)OC(C)(C)C)o2)c1	3.2	1.3	6.0	-8.2	-1.4	3.4	7.1	0.9
O=C(O)CCN(Cc1ccccc1)S(=O)(=O)c1ccccc1Cl	2.8	-3.1	28.0	·	1.8	-4.8	·	·
CCNC(=O)/C=C/c1ccccc1[N+](=O)[O-]	3.2	-1.9	24.5	-0.9	-0.2	-20.6	0.1	1.7
COc1ccc(NC(=S)N2CCN(S(=O)(=O)c3ccc(C)cc3)CC2)cc1	1.3	-10.0	-0.5	-4.4	4.9	11.8	-3.3	1.4
Cc1c(C(=O)N2CCN(c3ccccc3F)CC2)oc2c1C(=O)CC(C)(C)C2	1.2	5.0	-1.0	·	1.1	16.1	2.6	0.8
COc1cc(OC)c(OC)cc1CNC(=O)c1ccc(S(=O)(=O)N2CC(C)OC(C)C2)cc1 (stereo unspecified)	3.3	1.8	·	-5.6	·	·	2.3	1.6
CCCCSc1nc2ccc(Nc3nc(N4CCOCC4)nc(N4CCOCC4)n3)cc2s1	-2.1	14.3	-1.1	9.1	5.9	57.2*	-4.4	0.2
